Source: PubChem
ALR H2O2 inh – inhibitors of human sulfhydryl oxidase ALR; purified ALR, DTT oxidation, H2O2 HRP-luminol luminescence; inhibition, % (no concentration beside the values); hit rate 3.8% among 290,000; AID 485317;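 active = mean and each replicate at 75% or more; inconclusive = only one of the two met; inactive = neither met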;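 also: stock transfer was 7.5 nL into about 7.5 µL; 0% = neutral wells and 100% = wells with inactivated enzyme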
LANA-H2A inh – blocks KSHV LANA binding to histone H2A/H2B; Q9QR71; cell-free LANA-H2A/H2B peptide, fluorescence polarization; inhibition, % (no concentration beside the values); hit rate 0.6% among 320,000; AID 2629; in the data active = inhibition mostly above about 10%, no sharp cut-off; inactive = mostly below about 6.7%;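 also: stock transfer was 7.5 nL into about 10 µL; 0% = median of vehicle wells and 100% = median of positive control wells; one replicate is shown; the record names a cut of 25% in any replicate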
Target sequence (Q9QR71 whole entry, looked up): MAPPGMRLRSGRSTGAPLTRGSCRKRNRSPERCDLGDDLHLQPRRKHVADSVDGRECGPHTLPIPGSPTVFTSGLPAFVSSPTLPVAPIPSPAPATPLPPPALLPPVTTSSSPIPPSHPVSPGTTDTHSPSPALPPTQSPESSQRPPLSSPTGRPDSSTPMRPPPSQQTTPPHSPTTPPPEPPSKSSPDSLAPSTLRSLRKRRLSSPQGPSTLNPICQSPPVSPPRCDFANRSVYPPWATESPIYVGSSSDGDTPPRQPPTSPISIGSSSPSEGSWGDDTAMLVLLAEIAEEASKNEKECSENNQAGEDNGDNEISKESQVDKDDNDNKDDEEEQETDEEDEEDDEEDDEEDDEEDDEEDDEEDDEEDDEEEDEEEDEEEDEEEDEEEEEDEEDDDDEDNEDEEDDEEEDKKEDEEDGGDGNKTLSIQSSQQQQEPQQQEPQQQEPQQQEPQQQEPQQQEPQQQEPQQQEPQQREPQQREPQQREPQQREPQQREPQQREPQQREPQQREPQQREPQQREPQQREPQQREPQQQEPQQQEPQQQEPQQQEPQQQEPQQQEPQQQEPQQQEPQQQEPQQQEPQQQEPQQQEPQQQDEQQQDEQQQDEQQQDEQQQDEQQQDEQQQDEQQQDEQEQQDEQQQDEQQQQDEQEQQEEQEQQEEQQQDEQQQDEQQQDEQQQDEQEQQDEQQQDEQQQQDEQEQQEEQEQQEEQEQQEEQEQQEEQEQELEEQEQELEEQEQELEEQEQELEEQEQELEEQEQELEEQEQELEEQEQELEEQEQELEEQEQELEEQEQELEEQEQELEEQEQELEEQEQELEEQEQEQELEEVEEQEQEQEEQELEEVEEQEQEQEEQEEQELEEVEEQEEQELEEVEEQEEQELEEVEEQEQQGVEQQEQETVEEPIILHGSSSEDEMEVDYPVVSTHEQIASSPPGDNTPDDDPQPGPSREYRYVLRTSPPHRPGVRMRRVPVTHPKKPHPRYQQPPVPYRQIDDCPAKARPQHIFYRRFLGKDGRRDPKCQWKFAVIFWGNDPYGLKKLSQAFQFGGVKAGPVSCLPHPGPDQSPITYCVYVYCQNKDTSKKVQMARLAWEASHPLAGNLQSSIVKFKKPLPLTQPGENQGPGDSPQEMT
Calb FLC – affects C. albicans growth with fluconazole; growth inhibition, % (concentration not given with the values); C. albicans CaCi-2 (fluconazole-resistant clinical isolate) + fluconazole, Alamar Blue growth, 48 h; hit rate 0.57% among 300,000;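 active = most replicates above 75%; inconclusive = exactly half above 75%; inactive = most below 75%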;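 also: all wells also contain fluconazole at 8 µg/ml as a sub-toxic cotreatment; 0% = median of DMSO wells and 100% = median of geldanamycin control wells; wells of about 8 µL received 7.5 nL stock; the first replicate is given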
HNF4A DNA FP – change in binding of human HNF4 alpha to DNA; P41235; HNF4a-FITC DNA binding, fluorescence polarization, 1 h; activity change, % at 10 µM; hit rate 0.3% among 360,000; AID 1224865; in the data active = activity change above about 30%, passing the limit was not always enough;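 also: controls were the assay level and a saturating level of protein; the project sought stronger binding though the title names inhibitors; some compounds called inactive have numbers as strong as hits; positive values seem to mean higher polarization but the record does not say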
Vif A3G – inhibitors of Vif binding to APOBEC3G peptide, primary screen, biochemical, TR-FRET, GST-Vif 1-94, biotin-A3G peptide, dose response retest (AID 1117319); TR-FRET GST-Vif / biotin-A3G peptide binding; higher % means a stronger effect; test concentration not given here; strong numbers were not always called active; inhibition, %; hits with a dose series show IC50 in µM; hit rate 0.57% among 260,000;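 active = above the screen mean plus three standard deviations and confirmed in dose response; inconclusive = results disagree or hit not tested in dose response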;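 also: Vif residues 1-94 fused to GST binding biotinylated APOBEC3G peptide 110-148; 0% = full assay without inhibitor and 100% = GST in place of GST-Vif; retest series ran down from 100 µM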
Beta2AR agonist – activates human beta-2 adrenergic receptor causing internalization | response, % (concentration not given with the values) | Am2.2-beta2AR cells, FAP receptor internalization, flow cytometry; reference of the scale not given here | hit rate 0.43% among 340,000 | P07550;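 active = response above a set limit, near 3 SD of response in nonfluorescent compounds, cut at about 42% in these data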;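 also: stock transfer was 100 nL into about 11 µL; a reference agonist was the positive control; negative values mostly stem from fluorescent compounds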
RanGTP-Imp inh – disruptors of Ran-importin-beta complex formation – biochemical, FRET, CFP-Ran, YFP-importin-beta, homogeneous, primary screen | cell-free CFP-Ran/YFP-importin-beta FRET ratio | inhibition, % (test concentration not listed) | hit rate 1.1% among 300,000 | AID 2216;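 active = most replicates above 15%; inconclusive = exactly half above 15%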;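 also: 0% = DMSO wells and 100% = Ran loaded with GDP instead of GTP; wells of about 40 µL received 100 nL stock; the first replicate is given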
The depositor's hits bear a star; ? = inconclusive; nt = not tested or not shown; & = joins results of further samples.

SMILES	ALR H2O2 inh	LANA-H2A inh	Calb FLC	HNF4A DNA FP	Vif A3G	Beta2AR agonist	RanGTP-Imp inh
COC(=O)C1=C(C)NC(C)=C([N+](=O)[O-])C1c1ccccc1C(F)(F)F (configuration not stated)	-17&-18	-1.3&2.1&-2.1	nt	3.6&1.3	17%	5&-2	0.4
CC(=O)N(c1ccc2oc(=O)sc2c1)S(=O)(=O)c1cccc2cccnc12	nt	1.0	-7	31*	nt	3	1.6
COC(=O)C(C#N)c1nc2ccccc2nc1N1CCN(Cc2ccc3c(c2)OCO3)CC1 (configuration not stated)	-7	-8.8	-2	nt	nt	nt	-1.7
Cn1c(=O)cc(OCCCC(=O)NCc2ccc3c(c2)OCO3)c2ccccc21	-32	3.6	-3	7.1	1%	-7	?
CCOc1cc(NC(=O)C2CC2)c(OCC)cc1NC(=O)c1cccc(F)c1	-1	0.7	-3	1.0	-2%	-21	-1.2
COc1ccnc(Oc2cccc(C(F)(F)F)c2)c1C(=O)N/C=N/OCc1ccccc1F	1	-0.5	108*	0.5	6%	-1	2.7
OCCN1CCN(Cc2cccc(Oc3ccc(Cl)cc3)c2)CC1	-9	0.3	-11	-1.4	0%	1	3.2
CCn1c(SCC(=O)Nc2cccc(C(C)=O)c2)nnc1C(C)C	99*	3.2	19	2.2	16%	8	-15
O=C(O)CN(c1ccccn1)S(=O)(=O)c1ccccc1	0	-0.7	-17	-1.6	0%	-2	2.4
NC(=O)C(c1ccc(Cl)cc1)c1ccc(Sc2ccccc2)nn1 (configuration not stated)	-9	-3.1	3	0.8	-1%	-6	-4.2
O=C(/C=C/c1ccc(OC(F)F)cc1)OCC(=O)N1CCC(c2ccccc2)=N1	nt	-1.8	nt	4.3	-8%	-5	nt
c1ccc(Cc2nc3ccccc3n2Cc2ccccc2)cc1	10	0.4	?	-2.4	18%	0	1.9
CC(=O)NCCn1c(SCc2cccc([N+](=O)[O-])c2)nc2ccccc2c1=O	-2	-1.1	-2	-0.4	26%	1	2.5
CCNCCOC(c1ccccc1)c1ccccc1	-23	-1.7	0	15	0%	-1	1.9
COc1ccc(C(=O)N/N=C/c2ccc(OC)c(COc3ccccc3)c2)cc1	-4	5.4	6	3.7	nt	28	0.6
CCCn1nnnc1SCC(=O)NNC(=O)c1ccco1	1	1.0	2	-1.9	-15%	3	2.2
COC(=O)Nc1ccc(OCC(=O)N2CCOCC2)cc1	-6	8.0	35	1.1	4%	-2	6.9
CCN(CC)S(=O)(=O)c1ccc(NC2c3ccccc3C(=O)N2CCN2CCOCC2)cc1 (configuration not stated)	-5	2.1	-16	-2.2	-5%	-3	?
O=C(CCC(=O)Nc1nnc(C2CCCCC2)s1)Nc1ccc(F)cc1	-7	3.8	-2	-2.4	0%	4	7.9
C=CCn1c(CCC(=O)O)ccc1-c1ccc(OC)cc1	49	3.7	?	2.3	5%	9	-2.1
N#C/C(C(=O)N1CCCCC1)=C1\Nc2ccccc2S1	57	-5.1	2	2.0	6%	-22	-1.4
Oc1ccc(Br)cc1C1Nc2ccccc2S1 (configuration not stated)	56	-4.3	2	2.2	-23%	-1	8.1
CCc1nnc(NC(=O)c2ccc(S(=O)(=O)N(CCOC)CCOC)cc2)s1	nt	-3.3	-2	-0.6	5%	-5	-6.6
Cn1c(=O)[nH]c(=O)c2c1nc(SCC(=O)O)n2CCc1ccccc1	5	-1.2	nt	5.4	5%	-2	?

Retrieved by structure from above (two):
SMILES	ALR H2O2 inh	LANA-H2A inh	Calb FLC	HNF4A DNA FP	Vif A3G	Beta2AR agonist	RanGTP-Imp inh
CCc1nnc(NC(=O)c2ccc(S(=O)(=O)N(CCOC)CCOC)cc2)s1	nt	-3.3	-2	-0.6	5%	-5	-6.6
Cn1c(=O)[nH]c(=O)c2c1nc(SCC(=O)O)n2CCc1ccccc1	5	-1.2	nt	5.4	5%	-2	?

(listing goes on)
SMILES	ALR H2O2 inh	LANA-H2A inh	Calb FLC	HNF4A DNA FP	Vif A3G	Beta2AR agonist	RanGTP-Imp inh
Cc1cccc(OCC(=O)N2CCN(S(C)(=O)=O)CC2)c1	-13	-3.0	-4	2.5	nt	-3	0.3
O=C(NCC1CCCO1)c1ccc(NC(=O)c2cccc(Cl)c2)cc1 (configuration not stated)	-4	11	-11	0.3	nt	3	-1.4
O=C(COC(=O)c1n[nH]c2ccccc12)NCCc1ccccc1	nt	-2.1	nt	3.3	1%	-2	nt
COc1ccc2cc(C=O)n(C)c2c1	-12	1.5	nt	0.7	nt	0	nt
CC(C)N(C(=O)CSc1nc(COc2ccccc2)nc2ccccc12)C(C)C	-5	-4.8	?	0.0	-2%	-5	4.4
CCOC(=O)N1CCN(C(=O)CSCc2ccc(C)cc2)CC1	-10	-3.0	0	-1.3	7%	-7	-4.0
CCc1nnc(NC(=O)COC(=O)CN2C(=O)c3ccccc3C2=O)s1	-2	-0.3	-1	-2.1	3%	12	0.9
COc1cccc(CNC(=O)CCCn2nc(C)n3c(cc4sccc43)c2=O)c1	1	2.9	-3	-0.2	-18%	-9	11
Cc1cc(Cl)ccc1N1C(=O)CC(NNC(=O)c2cccnc2)C1=O (configuration not stated)	-3	12	10	-1.8	-6%	-1	-0.6
O=C(Cn1cnc2ccccc21)N/N=C/c1ccco1	-13	3.0	11	1.4	-4%	-4	-3.0
CC1=CC2=NC(=O)CC(C)(C(=O)N(CC(=O)NC3CCCC3)Cc3ccc(Cl)cc3)N2C=C1 (configuration not stated)	-3	6.4	2	-1.2	nt	4	0.0
CCOC(=O)Cc1c(C)nc(SC)[nH]c1=O	0	1.6	4	1.2	-6%	3	2.3
O=C(Oc1ccc2c(-c3ccccc3)cc(=O)oc2c1)C1CCCCC1	-13	4.2	7	-1.4	6%	5	2.2
C=CCSC1=N/C(=C\c2ccc3c(c2)OCO3)C(=O)S1	3	5.5	2	4.9	5%	0	2.9
CCOc1ccccc1/C=N/n1c(C)nc2ccccc2c1=O	-2	-4.0	4	1.2	-12%	-1	-2.9
CC(C)(C)Sc1ccccc1S(=O)(=O)C(C)(C)C	nt	4.7	-4	4.2	nt	5	-1.5
Cc1cc(C)n2nc(SCC(=O)N(C)C3CCCCC3)nc2n1	0	-1.4	-6	-1.3	3%	-15	-0.7
CCOC(=O)c1ccccc1N=N/C(C(C)=O)=C(/C)O	6	-0.7	1	0.8	-3%	4	0.5
O=C(Nc1ccccc1Sc1ccccc1)c1ccccc1	34	-0.1	?	-3.7	-4%	5	-1.6
C/C(=N\NC(=O)NC1CCCCC1)c1ccc(Cl)s1	-7	1.9	-11	0.7	0%	-9	3.6
C=C(CN(C)C)C(=O)c1cc(C)ccc1C	nt	nt	nt	0.7	-3%	19	nt
C=CCn1c(SCC(=O)Nc2ccc3c(c2)CCC3)nc2ccccc2c1=O	3	4.5	-8	-0.4	-5%	-5	-5.0
CCC1C/C(=C/c2cccs2)C(=O)/C(=C/c2cccs2)C1 (configuration not stated)	7	2.1	4	7.5	6%	-4	1.1
O=C(Nc1ccc(Cl)c(Cl)c1)c1csc(-c2ccccc2)n1	-6	-0.2	-14	0.2	-11%	10	-0.8
CC(C)C(NC(=O)c1ccccc1F)C(=O)OCC(=O)c1ccc(F)cc1 (configuration not stated)	-6	-2.0	-4	-6.0	-6%	0	-3.5
COc1ccc2oc(=O)c(C(=O)NC(C)c3ccccc3)cc2c1 (configuration not stated)	-15	1.6	-7	-6.2	11%	6	2.4
CN(C(=O)CSC1=NCCS1)c1ccccc1	-6	1.0	1	-3.2	5%	4	-2.5
O=C(CN(Cc1ccccc1)S(=O)(=O)c1ccccc1)NC1CC1	0	-1.3	2	-0.9	-5%	-2	-4.0
COc1cc(CNCCN(C)C)c(Br)cc1OC1CCCC1	-12	-0.2	-3	-0.4	11%	-7	-1.7
CCOC(=O)c1c(C)c(C(=O)NCc2ccc(OC)cc2)c(C)n1C	-6	3.3	-9	5.3	7%	2	-4.8
CCOC=C1C(=O)N(C(C)=O)c2cc(OC)c(OC)cc21	nt	nt	nt	0.8	-6%	2	nt
COc1ccc(S(=O)(=O)N(CC(=O)NCCCN(C)C)c2ccc(C)cc2)cc1OC	3	-10	4	4.8	33%	8	1.6
CCN(CC(=O)NCc1ccc(Cl)cc1)S(=O)(=O)c1ccc(F)cc1	-5	4.2	-2	-1.3	7%	-2	0.8
CCOCCOC(=O)C(C)Sc1n[nH]c(=O)[nH]c1=O (configuration not stated)	-1	-2.4	nt	-0.6	0%	1	3.6
CCCn1c(Oc2ccccc2)nc2c1c(=O)n(C)c(=O)n2C	-1	0.6	-6	1.4	6%	0	?
CC1(C)CC(=O)C2=C(C1)N(N1CCOCC1)C(N)=C(C#N)C2c1cccnc1 (configuration not stated)	9	0.2	-3	1.6	5%	12	4.9
COC(=O)c1ccc(NC(=S)Nc2ccc(O)cc2)cc1	99*	2.1	18	-3.5	nt	-1	0.3
COCCNC(=O)c1c[nH]c2ccc(S(=O)(=O)N3CCC4(CC3)OCCO4)cc2c1=O	nt	nt	29	0.0	-1%	-1	6.6
CCn1nc(NC(=O)c2ccncc2)c2cc3ccc(C)cc3nc21	-1	-2.0	38	-1.7	1%	3	24*
Cc1ccc(NC(=O)C(C)Sc2nnc3ccccn23)cc1 (configuration not stated)	-7	1.0	nt	1.3	nt	-1	nt
CCS(=O)(=O)c1ccc2oc(Nc3cc(C)cc(C)c3)nc2c1	-4	-4.2	7	2.7	27%	6	-0.5
CCN(Cc1ccccc1)C(=O)c1ccc(N(C)S(=O)(=O)c2ccc(C)cc2)cc1	-2	1.8	-10	-1.8	-1%	-4	-1.1
O=C(C1CCC1)N1CCCc2cc(S(=O)(=O)N3CCN(c4ccccc4)CC3)ccc21	1	-6.1	-15	4.7	-7%	-16	7.7
O=C(NCCc1ccccc1)C1CCC(=O)N(CCCN2CCCC2=O)C1 (configuration not stated)	-6	-0.8	4	0.3	nt	-6	3.1
COc1ccccc1NC(=S)NC(=O)Cc1ccccc1	-2	4.3	0	-0.8	nt	3	-5.3
NC(=O)C1CC=CCC1C(=O)OCC(Cl)=C(Cl)Cl (configuration not stated)	-5	-0.9	11	-1.7	?	-2	0.8
COc1ccccc1CN(Cc1cc2cc(C)cc(C)c2[nH]c1=O)Cc1nnnn1CC1CCCO1 (configuration not stated)	-4	1.1	0	-1.9	3%&-22%	1	-2.7
Cc1ccc(NS(=O)(=O)c2ccc(OCC(=O)N3CCOCC3)cc2)cc1	-9	0.8	-8	-0.1	-2%	-9	-2.7
COCCn1cc(C(=O)c2ccccc2OCC(=O)Nc2cc(C)on2)cc(C#N)c1=O	-10	-0.2	1	-3.2	3%	1	4.3
CCOc1ccc(NC(=S)NS(=O)(=O)c2cc(Br)ccc2OCC)cc1	-14	0.8	-55	0.1	nt	3	3.0
CC(C)(C)c1ccc(/C=N/OCC(=O)NCc2ccc(F)cc2)cc1	8	-4.3	2	-1.1	5%	23	-0.8
O=C(c1ccc(F)cc1)N1CCC2(CC1)NCCc1[nH]cnc12	-5	-2.7	3	-6.8	-6%	-1	1.9
COc1cccc(CNC(=O)c2ccc(NC(=O)C3CCCO3)cc2)c1 (configuration not stated)	-5	-2.8	10	0.5	-1%	2	-3.1
COc1cccc(-n2ccn(CC(=O)NCCc3ccccc3)c(=O)c2=O)c1	-11	1.0	16	-1.9	nt	16	?
COc1cc(NC(=O)c2cc(C)no2)c(OC)cc1Cl	2	-3.8	-5	0.0	2%	-5	?
CCCCOc1ccc(C(=O)N2CC(C)OC(C)C2)cc1 (configuration not stated)	-7	-0.1	42	0.5	22%	0	-2.6
CCOc1ccc(Br)cc1C1C(C(=O)OC)=C(N)Oc2cc(N(C)C)ccc21 (configuration not stated)	-3	-1.0	-3	9.5	-4%&2%	17	14
CC1=C(C(=O)OCCCBr)C(c2ccc3c(c2)OCO3)NC(=O)N1 (configuration not stated)	7	4.3	-22	-1.9	nt	1	?
